TAR Tat displ: HIV-1 TAR-Tat binding disruption; HIV-1 TAR RNA, Tat peptide displacement FRET; hits give high values; z-score (test concentration not listed); 100,000 compounds, 0.6% hits; AID 1259389;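 note: score is relative to mean and SD of negative controls; some compounds called inactive have numbers as strong as hits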
CDC25B-CDK2 inh: human CDC25B-CDK2/CyclinA binding inhibition; HTRF CDC25B-CDK2/CyclinA binding, anti-His/anti-Flag; hits give high values; 94,000 compounds, 0.72% hits; AID 1259370; z-score (no concentration beside the values); P30305+P24941;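 note: score is relative to mean and SD of negative controls; strong numbers were not always called active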
An asterisk follows results filed as active; · = no result given.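 Rule for the calls: active = z-score from 3 up in half or more of its runs; inactive = the rest.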

SMILES	TAR Tat displ	CDC25B-CDK2 inh
COc1ccc(/C=C2\S/C(=N\S(=O)(=O)c3ccccc3)NC2=O)cc1OC	·	2.5
CCc1nn(CC(=O)N2CCCCC2)c(=O)c2cc3occc3n12	2.8	-0.3
COc1cc(NC(=O)C(C)S(=O)(=O)c2ccc3c(c2)S(=O)(=O)N=CN3)cc(OC)c1 (configuration not stated)	1.1	·
Cc1cc(Nc2ccc(C(C)C)cc2)nc(-n2nc(C)cc2C)n1	1.4	·
CCOC(=O)c1nc2ccccc2c(=O)n1/N=C/c1cc(Cl)cc(Cl)c1O	·	-0.56
Cn1cccc1Cc1nnc(SCC(=O)N2CCCC2)n1CCc1ccccc1	-1.3	-0.26
Cc1cc(=O)nc2c3ccccc3n(C(C)C(=O)NC(C)c3ccc4c(c3)OCCO4)n12 (configuration not stated)	-0.16	-0.6
COc1cc2ccccc2cc1C(=O)OCc1nc2ccccc2s1	1.5	-0.75
COC(=O)c1ccc(C2Nc3ccc(C)cc3-c3cc(C)nn32)cc1 (configuration not stated)	2.9	-1.4
CC1CC(C)CN(CCCNC(=O)C2CCN(C(=O)c3cc4sccc4n3C)CC2)C1 (configuration not stated)	0.87	-0.41
NC(c1ccc(F)cc1)c1nnc(-c2ccccc2)o1 (configuration not stated)	1.6	-2
Cc1cc2ccccc2n1-c1ccc(C(=O)N2CCCCC2)s1	0.05	·
Cc1ccc(-c2nnc(SCc3cc(=O)c4cc(Cl)ccc4[nH]3)n2C)cc1	-0.8	·
O=C(NCCCN1CCCC1)C1CCN(c2nc3cccnc3s2)CC1	0.58	·
COc1ccccc1N1CCN(Cc2nc(N)nc(Nc3ccc(F)cc3)n2)CC1	1.8	·

One compound at a time (already shown).
NC(c1ccc(F)cc1)c1nnc(-c2ccccc2)o1 (configuration not stated) in the list: TAR Tat displ: 1.6; CDC25B-CDK2 inh: -2
CCc1nn(CC(=O)N2CCCCC2)c(=O)c2cc3occc3n12 in the list: TAR Tat displ: 2.8; CDC25B-CDK2 inh: -0.3

(further entries)
SMILES	TAR Tat displ	CDC25B-CDK2 inh
COc1c(C2COc3cc4c(cc3C2=O)CC(O)C(C)(C)O4)ccc2c1CCC(C)(C)O2 (configuration not stated)	3.3	·
Cc1cc(C)c(NS(=O)(=O)c2ccc3c(c2)NC(=O)CS3)c(C)c1	2.1	·
CC(=O)N1c2ccc(S(=O)(=O)N3CCC(C(=O)N4CCc5ccccc54)CC3)cc2CC1C (configuration not stated)	0.87	·
Brc1ccc(CNc2n[nH]c(-c3ccco3)n2)cc1	1.8	-2.7
COc1ccc2c(c1)C(SCC(=O)N1CCc3ccccc31)CC(C)(C)O2 (configuration not stated)	0.94	2.6
COCCCNC(=O)C1CCC(Cn2c(=O)c3sccc3n(CC(N)=O)c2=O)CC1 (configuration not stated)	1.3	·
CC(C)c1nc(NCCCO)c(C#N)c2c1COC(C)(C)C2	2.5	-1.6
O=C(c1ccc2c(c1)OCO2)N1CCN(S(=O)(=O)c2cc3c4c(c2)CCC(=O)N4CCC3)CC1	-0.06	·
C=CCOC(=O)C1=C(C)NC2=C(C(=O)CCC2)C1c1ccc(OCC)c(OC)c1 (configuration not stated)	1.6	-1.7
Cc1cccc(-c2nc3c4c(C)c(C)n(Cc5ccco5)c4ncn3n2)c1	-0.41	-0.57
CC1=C(C(=O)OCCOc2ccccc2)C(c2ccc(O)cc2)C2=C(CC(c3ccccc3)CC2=O)N1 (configuration not stated)	0.84	-2.7
O=C(Nc1cccc2ccccc12)OC1CCS(=O)(=O)C1 (configuration not stated)	·	0.2
CCN1CCN(c2oc(COc3ccccc3C)nc2C#N)CC1	3.3	-0.43
CN1CCN(c2nnc(-n3cccc3CN3CCN(c4ccccc4)CC3)s2)CC1	-0.04	·
O=C(O)CN(CC(=O)Nc1ccc2c(c1)OCCCO2)Cc1ccccc1	·	-0.92
CC(=O)O[C@@H]1CC2C(C)(C)C(=O)CC[C@]2(C)C2CC[C@@]3(C)[C@H](c4ccoc4)OC(=O)C4OC43[C@@]21C (some centres not stated)	1.3	·
CC(Cc1c[nH]c2ccccc12)Nc1ccc2ccccc2n1 (configuration not stated)	·	0.21
Cc1ccc2nc(N3CCN(C(=O)c4ccco4)CC3)c3nnnn3c2c1	-0.09	·
CCOC(=O)c1cnn2c(C(F)F)cc(-c3ccc(C)cc3)nc12	0.79	-0.28
O=c1oc(-c2cccs2)nc2ccccc12	0.93	-1.1
Cc1cc(-c2ccc(S(=O)(=O)N3CC=C(c4ccccc4)CC3)s2)on1	1.5	·
COC(=O)COc1ccc2c(=O)c(-c3ccc(Cl)cc3)c(C(F)(F)F)oc2c1	1.8	-1.8
CCOc1ccc(/C(O)=C2\C(=O)C(=O)N(c3nccs3)C2c2ccc(Cl)cc2)cc1 (configuration not stated)	-3.5	-1.6
Cc1ccc(-c2csc3nnc(SCC(=O)Nc4nsc(-c5ccccc5)n4)n23)cc1	2.5	-3.4
CC1/C(=N\O)CC(c2ccc([N+](=O)[O-])cc2)NC1c1ccc([N+](=O)[O-])cc1 (configuration not stated)	·	0.31
CCn1c(SCC(=O)N2CCc3ccccc32)nc2c(c1=O)SCC2	1.6	-0.81
Cc1c(Br)c([N+](=O)[O-])nn1CC(=O)NCC1CCCO1 (configuration not stated)	0.92	-1.6
CCn1c(=O)c2c(nc3n2CCN3c2cc(C)cc(C)c2)n(C)c1=O	2.2	·
CCOC(=O)Cc1cc(=O)n2[nH]c(-c3ccco3)nc2n1	1.8	13*
CSc1nc(-c2ccccc2)nc2[nH]ccc(=O)c12	4.7	-0.46
O=C(OCc1ccccn1)c1ccc(COc2cccc3ccccc23)cc1	·	-1.2
O=C(NC1=NCCS1)c1ccc([N+](=O)[O-])o1	·	-0.95
COc1ccc(Oc2c(Cl)cnn(-c3ccc(F)c(Cl)c3)c2=O)cc1	·	-1.2
Cc1csc2nc(CSc3nnc(-c4ccccc4)o3)cn12	0.82	·
O=c1c2ccccc2n2c(-c3ccc(Cl)cc3)nnc2n1Cc1ccccc1	0.29	-1
O=C(CSc1ccc2nnc(-c3ccc(Cl)cc3)n2n1)N1CCOCC1	·	0.12
Cn1ccc2cc(S(=O)(=O)N3CCN(C(=O)Nc4ccc(F)cc4F)CC3)ccc21	1.1	·
O=C(c1ccc([N+](=O)[O-])cc1)N1CC(Oc2ccc(Cl)cc2)C1	·	-0.59
COc1ccc(NS(=O)(=O)c2ccc3c(c2)NC(=O)CS3)c(OC)c1	1.1	·
COc1ccc(CNS(=O)(=O)c2cc(-c3onc(C)c3C)ccc2C)cc1	0.66	·
CC1CCN(C(=O)Nc2noc3c2COc2ccccc2-3)CC1	2.6	·
Cc1ccc(C(=O)OCc2cc(=O)n3oc(C)cc3n2)cc1	0.79	·
O=C(COc1ccc(F)cc1)N(Cc1ccco1)Cc1cccs1	-0.01	0.36
CN1CCCc2cc(C(CNC(=O)C(=O)NCCC3=CCCCC3)N3CCOCC3)ccc21 (configuration not stated)	0.49	·
CCOCCc1nn2c(=O)cc(COC(=O)COc3ccc(F)cc3)nc2s1	-0.79	·
Cc1ccc(S(=O)(=O)N2CCCC(c3nc(-c4cccs4)no3)C2)cc1 (configuration not stated)	2.2	·
Cc1cccc(CCNc2c(-c3ccc(C(C)C)cc3)c(=O)c2=O)c1	-0.44	·
CCCC(=O)c1c[nH]c2ccccc12	0.52	-0.89
CCCN1CN=C(Nc2nc(C)c3ccc(C)cc3n2)NC1	-0.43	-0.19
CCC(O)c1nc2ccccc2n1CC1CCCCC1 (configuration not stated)	-0.07	0.77
CN1CCc2c(sc(-n3cccc3)c2C#N)C1	-4.8	4
Cn1c(=O)c2c(SCc3cccnc3)nc(-c3ccco3)nc2n(C)c1=O	·	-1.6
Cc1[nH]nc2c1C(CCc1ccccc1)C(C#N)=C(N)O2 (configuration not stated)	0.3	0.05
CCN(CC)C(=O)c1c(NC(=O)c2ccco2)sc2c1CCCCC2	·	-1.9
Cn1c(=O)c2c(-c3cccc(F)c3)c(NCc3ccccc3)oc2n(C)c1=O	1.5	·
CC1=NN(c2ccccc2)C(=O)/C1=C\c1c(C)[nH]n(-c2ccccc2)c1=O	·	-1.5
CCc1cc(=O)oc2c(C)c(OCC(=O)O)ccc12	·	-1.9
Cc1ccc(-c2nc3ccccc3c3nnc(SCC(=O)NC(C(N)=O)c4ccccc4)n23)cc1 (configuration not stated)	1.1	·
CNc1nc(Oc2ccc(C(=O)OC)cc2)nc(SC)n1	1.3	0.51
CSc1nnc2[nH]c(=O)cc(N)n12	0.24	-1.5
Further entries:
SMILES	TAR Tat displ	CDC25B-CDK2 inh
O=C(CSc1nc2ncccc2[nH]1)Nc1cccc(F)c1	0.06	0.11
Clc1cccc(-c2noc3ncnc(NCC4CCCO4)c23)c1 (configuration not stated)	0.16	·
Cc1ccc(OCC(O)CN2CCN(Cc3ccc4c(c3)OCO4)CC2)c(C)c1 (configuration not stated)	·	0.68
COc1cccc(-c2n[nH]c3c2C(c2cccs2)N(C)C3=O)c1 (configuration not stated)	-0.84	0.39
COc1cc(OC)c(NC(=O)N2CCOc3ccccc32)cc1Cl	2	·
CCCN1CCN(c2nnc(-n3cccc3C(=O)O)s2)CC1	0.76	2.3
CCCN1C(=O)C(O)(CC(=O)c2ccc(C(C)C)cc2)c2ccccc21 (configuration not stated)	·	-0.95
CC1CCN(S(=O)(=O)c2csc(C(N)=O)c2)CC1	0.66	·
O=C(NCCc1nnc2ccc(NCc3ccc(F)cc3)nn12)c1ccc(F)cc1	-0.36	·
COc1ccc(OC(=O)CSc2nnc(-c3ccc(OC)cc3)o2)cc1	-1.6	-3.1
Nc1c(C(=O)N2CCOCC2)sc(=S)n1-c1ccccc1	3	·
COc1ccccc1-c1ccnc2[nH]n(-c3ccccc3)c(=O)c12	-0.46	-2.6
COc1ccc(-c2cc3c(Cl)nccn3n2)cc1	0.37	-2
CN(C)CCNc1nc(-c2ccco2)c2c(c1C#N)CC(C)(C)OC2	2	-1.3
COc1ccccc1Oc1ccc(S(=O)(=O)N2CCCC2)cc1	·	-0.68

A few values from above.
Reading of O=C(CSc1nc2ncccc2[nH]1)Nc1cccc(F)c1 in TAR Tat displ: 0.06
Reading of COc1ccccc1Oc1ccc(S(=O)(=O)N2CCCC2)cc1 in CDC25B-CDK2 inh: -0.68
Reading of CC1CCN(S(=O)(=O)c2csc(C(N)=O)c2)CC1 in TAR Tat displ: 0.66
Reading of Cc1ccc(OCC(O)CN2CCN(Cc3ccc4c(c3)OCO4)CC2)c(C)c1 (configuration not stated) in CDC25B-CDK2 inh: 0.68

Additional structures follow:
SMILES	TAR Tat displ	CDC25B-CDK2 inh
CC1CCN(C(=O)CCc2nc(CN3CCN(C(=O)c4cc(-c5cccs5)on4)CC3)no2)CC1	-1.4	·
O=S(=O)(NC(c1ccccc1)c1ccccc1)c1ccc(-n2cnnn2)cc1	4.7	0.76
c1ccc2c(c1)nc(-c1cscn1)n2CCCCc1nn[nH]n1	-2	-0.42
COc1ccc2cc(S(=O)(=O)c3ccc(OC)c(OC)c3)c(=O)oc2c1	·	0.75
COc1ccc(C(=O)Cn2c(=O)oc3ccc(C)cc32)cc1	·	-0.68
CN1CCN(CCNC(=O)Nc2ccc3c(c2)N(C)C(=O)c2ccccc2S3)CC1	1	-0.23
Cn1nnc(NCc2ccc(OCc3ccc(Cl)cc3)cc2)n1	1.1	·
COc1ccc(CCN2C(=O)CSC2c2ccc(C(C)C)cc2)cc1OC (configuration not stated)	·	-0.9
Cn1nnc2c(NCCCN3CCCC3=O)ncnc21	1.5	·
CC1=CC2CC1C1C(=O)N(c3ccc(C(=O)O)cc3)C(=O)C21 (configuration not stated)	·	-2.5
CS(=O)(=O)N1CCc2cc(C(=O)O)ccc21	0.56	0.89
CC1=C(C(=O)Nc2cccc(C)n2)C(c2cccnc2)C2=C(CC(C)(C)CC2=O)N1 (configuration not stated)	-0.54	-0.83
O=S(=O)(Nc1ccc(Cl)cc1)c1c(F)cccc1F	·	-0.71
CC1=C(O)C(=O)OC1c1c(F)cccc1Cl (configuration not stated)	·	-0.34
O=C(Nc1ccc(Cl)cn1)c1cc2c(s1)-c1ccccc1OC2	-0.47	-0.88
O=C(NC1CCCC1)c1ccc2c(c1)NC(=O)C(CS(=O)(=O)Cc1ccc(F)cc1Cl)N2 (configuration not stated)	-3.3	·
Cc1ccc(-n2nc(C)c3c(C)cc(=O)[nH]c32)cc1C	-0.31	-0.22
COc1ccc2[nH]cc(CCNS(=O)(=O)c3ccc4c(c3)NC(=O)CCS4)c2c1	1.9	·
C(=C\c1nn2cnnc2s1)/c1ccco1	21*	-0.67
Cn1nc(C(=O)Nc2ccccn2)c2c1-c1ccccc1S(=O)(=O)C2	1.2	-0.53
COc1ccc(OC)c(S(=O)(=O)Nc2ccc(-c3nc4ccccc4s3)c(Cl)c2)c1	1.1	·

Of the compounds above, 13 have an aryl thioether with sulfur outside any ring:
SMILES	TAR Tat displ	CDC25B-CDK2 inh
Cn1cccc1Cc1nnc(SCC(=O)N2CCCC2)n1CCc1ccccc1	-1.3	-0.26
Cc1ccc(-c2nnc(SCc3cc(=O)c4cc(Cl)ccc4[nH]3)n2C)cc1	-0.8	·
Cc1ccc(-c2csc3nnc(SCC(=O)Nc4nsc(-c5ccccc5)n4)n23)cc1	2.5	-3.4
CCn1c(SCC(=O)N2CCc3ccccc32)nc2c(c1=O)SCC2	1.6	-0.81
CSc1nc(-c2ccccc2)nc2[nH]ccc(=O)c12	4.7	-0.46
Cc1csc2nc(CSc3nnc(-c4ccccc4)o3)cn12	0.82	·
O=C(CSc1ccc2nnc(-c3ccc(Cl)cc3)n2n1)N1CCOCC1	·	0.12
Cn1c(=O)c2c(SCc3cccnc3)nc(-c3ccco3)nc2n(C)c1=O	·	-1.6
Cc1ccc(-c2nc3ccccc3c3nnc(SCC(=O)NC(C(N)=O)c4ccccc4)n23)cc1 (configuration not stated)	1.1	·
CNc1nc(Oc2ccc(C(=O)OC)cc2)nc(SC)n1	1.3	0.51
CSc1nnc2[nH]c(=O)cc(N)n12	0.24	-1.5
O=C(CSc1nc2ncccc2[nH]1)Nc1cccc(F)c1	0.06	0.11
COc1ccc(OC(=O)CSc2nnc(-c3ccc(OC)cc3)o2)cc1	-1.6	-3.1
